KCNQ2 block = KCNQ2 potassium channel inhibitors, primary screen, cell-based, CHO-K1, FluxOR thallium flux, B-score (AID 2156); Potassium voltage-gated channel subfamily KQT member 2 (Rattus norvegicus), O88943; 20 min; stronger effect = lower value; only compounds with negative scores are shown here; some inactives read as strong as hits; 310,000 compounds, 1.1% hits; B-score at 10 µM;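 active means fluorescence ratio B-score at most minus 3 library SDs, with starting brightness B-score within 2 library SDs, cut at about -5.5 in these data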
Target sequence (O88943 whole entry, looked up): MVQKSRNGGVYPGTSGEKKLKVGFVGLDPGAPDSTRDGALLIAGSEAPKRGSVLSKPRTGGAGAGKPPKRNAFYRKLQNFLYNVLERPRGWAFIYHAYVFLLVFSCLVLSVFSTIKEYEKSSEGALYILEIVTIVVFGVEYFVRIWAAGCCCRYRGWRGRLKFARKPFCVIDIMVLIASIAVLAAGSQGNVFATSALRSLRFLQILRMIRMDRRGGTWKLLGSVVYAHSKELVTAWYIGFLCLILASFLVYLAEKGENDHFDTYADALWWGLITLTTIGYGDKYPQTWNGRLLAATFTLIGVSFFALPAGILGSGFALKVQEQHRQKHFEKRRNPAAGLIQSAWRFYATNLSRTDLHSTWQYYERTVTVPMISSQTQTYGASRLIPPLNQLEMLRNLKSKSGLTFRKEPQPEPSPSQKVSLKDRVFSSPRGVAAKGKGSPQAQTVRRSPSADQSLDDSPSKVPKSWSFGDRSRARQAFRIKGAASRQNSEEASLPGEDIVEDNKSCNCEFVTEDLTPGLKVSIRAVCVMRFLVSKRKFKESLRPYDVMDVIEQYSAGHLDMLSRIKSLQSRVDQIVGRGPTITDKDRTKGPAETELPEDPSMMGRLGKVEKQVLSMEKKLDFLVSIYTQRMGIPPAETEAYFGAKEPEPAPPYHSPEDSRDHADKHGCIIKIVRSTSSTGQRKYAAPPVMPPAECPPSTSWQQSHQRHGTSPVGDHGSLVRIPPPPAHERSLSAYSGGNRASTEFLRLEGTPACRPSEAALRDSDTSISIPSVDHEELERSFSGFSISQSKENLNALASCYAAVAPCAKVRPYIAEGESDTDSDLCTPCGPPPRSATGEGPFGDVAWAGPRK
KCNQ2 block baseline = also measured in KCNQ2 block; calls as there; B-score; measured here: initial fluorescence intensity artifact check;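 brightness before thallium and not channel activity; 0 = typical well and far values either way flag optical interference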
Active calls of the source: *; i = inactive. Not all compounds are listed. The share of hits here may be higher or lower than overall.

KCNQ2 block,KCNQ2 block baseline,structure
i,-0.04,NC(=O)c1ccsc1NC(=O)c1ccc2c(c1)CCCC2
i,1.5,CCOC(=O)c1ccc(NC(=O)N(CC)CC)cc1
i,1.2,CC(=O)N1CCN(C(=O)CCc2cc(C(C)(C)C)c(O)c(C(C)(C)C)c2)CC1
i,0.65,O=C(Nc1nnc(SCC(=O)N2CCOCC2)s1)c1ccccc1
i,0.26,COc1ccc(N2CCN(C(=O)CN(c3ccccc3)S(=O)(=O)c3ccc(OC)cc3)CC2)cc1
i,2.9,O=C1C(=O)N(CCCN2CCOCC2)C(c2ccc([N+](=O)[O-])cc2)/C1=C(/O)c1ccc2c(c1)OCO2 (stereo unspecified)
i,0.23,Cc1ccccc1S(=O)(=O)Cc1ccc(C(=O)NC2CCCC2)o1
i,0.02,O=C(O)C/C=C(\NC(=O)OCc1ccccc1)C(=O)OCc1ccccc1
i,-0.93,O=c1c2c(nc3cc(-c4ccccc4)[nH]n13)CCC2
i,0.66,CC1CCC(C(=O)c2c(O)c3ccccc3oc2=O)CC1 (stereo unspecified)
i,1.3,CCOC(=O)C1(Cc2ccccc2)CCCN(C2CCCC2)C1 (stereo unspecified)
i,-0.74,CNC(=O)CSc1nc(SC)ns1
i,-0.05,CCOc1ccc(NC(=O)N2CCC(NC(=O)C(Cc3cccc(F)c3)NC(C)=O)CC2)cc1 (stereo unspecified)
i,0.58,CCOc1ccc(N(Cc2cc3cc(OC)ccc3[nH]c2=O)S(C)(=O)=O)cc1
i,-0.25,Cc1cc(C)n2nc(CNS(=O)(=O)c3c(F)c(F)c(F)c(F)c3F)nc2n1
i,-0.68,CC1CCCN(C(=O)Cn2nnc(-c3ccc([N+](=O)[O-])cc3)n2)C1 (stereo unspecified)
i,1.3,COc1ccc(S(=O)(=O)N2CCC(NC(=O)c3cccnc3)CC2)cc1
i,0.35,COc1ccc(S(=O)(=O)N2CCOCC2)cc1NC(=O)CSc1nnc(C2CC2)n1N
i,-1.5,CN(C(=O)COC(=O)c1cc([N+](=O)[O-])ccc1Cl)c1ccccc1
i,-0.27,O=C(COC(=O)c1ccc(Br)o1)Nc1ncc(Cl)cc1Cl
i,1.3,Nc1nnc(/C=C/c2ccccc2Cl)s1
i,1.3,Cc1ccc2c(N)c(C)ccc2c1
i,-0.11,CCc1cccc(C)c1NC(=O)c1ccc2nc(N3CCOCC3)sc2c1
i,-0.63,CCOC(=O)C1CCCN(CCC(=O)Nc2ccc3c(c2)CCC3)C1 (stereo unspecified)
i,-4,O=c1nc2ccccc2c2n1CC(CN1CCN(Cc3ccccc3)CC1)N2 (stereo unspecified)
i,-1.5,O=C(CCNc1ccc(Br)cc1)c1cccc([N+](=O)[O-])c1
i,0.78,Cn1c(=O)c2c(nc(-n3ccnc3)n2Cc2ccc([N+](=O)[O-])cc2)n(C)c1=O
i,0.09,Cc1ccc(S(=O)(=O)NNC(=O)c2c(O)c3ccccc3[nH]c2=O)cc1
i,0.16,Cc1ccc(C)c(OCC(=O)N2CCc3ccccc3C2)c1
i,-0.66,CC(=O)Nc1ccc(S(=O)(=O)Nc2c(C)nn(-c3ccccc3)c2C)cc1
i,-0.2,Cc1c(C(=O)Nn2cnnc2)oc2ccccc12
i,1.3,CCc1ccccc1NC(=O)Nn1cnnc1
i,1.3,CC(/C=N/NC(=O)CSc1nnc(SCc2ccccc2)s1)=C\c1ccco1
i,-0.3,COc1ccc2c(=O)c(C(=O)NCCc3ccc(OC)c(OC)c3)c[nH]c2c1
i,-1.2,CSc1ccccc1C(=O)C1CCCN(C(=O)CCN2CCCO2)C1 (stereo unspecified)
i,-0.01,COc1ccc2[nH]cc(/C=C(/C#N)S(=O)(=O)c3ccccc3)c2c1
i,1.2,Cc1ccc2c(c1)c(N=O)c(O)n2Cc1ccc(Cl)cc1
i,1.5,CC1Cc2ccccc2N1C(=O)Cn1c(=O)cc(O)c2ccccc21 (stereo unspecified)
i,-0.29,C=CCNC(=O)CSc1nc2sc(C)c(C)c2c(=O)[nH]1
i,1.3,COc1cc(C2NC(=O)NC(c3ccccc3)=C2C(C)=O)cc([N+](=O)[O-])c1O (stereo unspecified)

Profiles as entered above. Order of screens: KCNQ2 block	KCNQ2 block baseline
O=C(CCNc1ccc(Br)cc1)c1cccc([N+](=O)[O-])c1 in the list: i	-1.5
Cc1ccc2c(c1)c(N=O)c(O)n2Cc1ccc(Cl)cc1 in the list: i	1.2
CC(=O)Nc1ccc(S(=O)(=O)Nc2c(C)nn(-c3ccccc3)c2C)cc1 in the list: i	-0.66
COc1cc(C2NC(=O)NC(c3ccccc3)=C2C(C)=O)cc([N+](=O)[O-])c1O (stereo unspecified) in the list: i	1.3
O=c1nc2ccccc2c2n1CC(CN1CCN(Cc3ccccc3)CC1)N2 (stereo unspecified) in the list: i	-4

The listing continues.
KCNQ2 block,KCNQ2 block baseline,structure
i,2.2,CC(Sc1nnc(-c2ccc(OC(F)F)cc2)n1N)C(=O)NCC1CCCO1 (stereo unspecified)
i,1.9,COC(=O)c1ccc(C2C(C#N)=C(C)NC3=C2C(=O)CC(C)(C)C3)cc1 (stereo unspecified)
i,-0.18,COc1ccc2oc(=O)c(NC(=O)C3CCCCC3)cc2c1
i,0.64,COC(=O)c1nn(-c2ccccc2)c(Cl)c1/C=N/OCc1ccc(Cl)cc1Cl
i,1.4,Cc1ccc(S(=O)(=O)N2CCOC2CNC(=O)C(=O)NCc2ccncc2)cc1 (stereo unspecified)
i,1.7,COc1ccc(CNC(=O)CCCn2nc(C)c3c(C)n(-c4ccc(C)cc4)nc3c2=O)cc1
i,-0.17,COCCNC(=O)C(OC(=O)c1ccco1)c1ccccc1OC (stereo unspecified)
i,2.7,COc1cc(-c2nnc(SCc3cc(=O)oc4cc(O)c(O)cc34)o2)cc(OC)c1OC
i,1.7,O=C1CSC(c2cccc(O)c2)N1Cc1ccccc1 (stereo unspecified)
i,-0.67,COc1cccc(OC)c1C(=O)Nc1cccnc1
i,-0.13,COc1ccc(OCC(O)CNC2CCCC2)cc1 (stereo unspecified)
i,0.15,Cc1cc(C(=O)NCc2ccc(F)cc2)n(-c2ccccc2)n1
i,-0.15,CC(=O)Cc1nsc(Nc2ccccc2)n1
i,0.08,COc1ccc(CCNC(=O)COc2ccc(N(C)S(=O)(=O)c3ccc(C)cc3)cc2)cc1
i,-2.1,CCOC(=O)c1c(S(=O)(=O)N2CCCC(C(=O)Nc3cccc(C)n3)C2)c(C)n(C)c1C (stereo unspecified)
i,1.8,COc1cccc(C(=O)c2cc3ccc(O)cc3oc2=O)c1
i,4.7,Cc1cc(C)c(S(=O)(=O)N(C)CC(=O)NCc2ccccn2)c(C)c1
i,-0.89,COc1ccc(CNC(=O)C2=CCN(S(=O)(=O)c3ccc(C)cc3)CC2)cc1
i,-2.6,CCN(CC)C(=O)Oc1ccc(Cl)c2cccnc12
i,-0.9,Cc1ccc([N+](=O)[O-])cc1NC(=O)CN(C(=O)c1ccc(Cl)cc1)C1CCCCC1

A draw from above in order of length of the SMILES, ascending.
KCNQ2 block,KCNQ2 block baseline,structure
i,1.3,CCc1ccccc1NC(=O)Nn1cnnc1
i,1.3,Nc1nnc(/C=C/c2ccccc2Cl)s1
i,0.66,CC1CCC(C(=O)c2c(O)c3ccccc3oc2=O)CC1 (stereo unspecified)
i,1.8,COc1cccc(C(=O)c2cc3ccc(O)cc3oc2=O)c1
i,-0.63,CCOC(=O)C1CCCN(CCC(=O)Nc2ccc3c(c2)CCC3)C1 (stereo unspecified)

(list continues)
KCNQ2 block,KCNQ2 block baseline,structure
i,0.4,CCOP(=O)(OCC)/C(C#N)=C/c1ccc(-c2ccc(F)cc2F)o1
i,-0.59,COCCCNC(=S)N(Cc1ccccc1)Cc1ccccc1
i,0.75,COc1ccc(CNc2nc(NCc3ccc(OC)cc3)n(C(C)=O)n2)cc1
i,1.7,CN(C)c1ccc(N2C(=O)CSC2=S)cc1
i,1.6,CCOC(=O)C1(CCOc2ccccc2)CCN(Cc2cc(OC)ccc2OC)CC1
i,1.5,O=C1C2ON(c3ccccc3)C(c3ccncc3)C2C(=O)N1c1ccccc1 (stereo unspecified)
i,1.5,CC1CCCN(C(=O)CNC(=O)c2ccco2)C1 (stereo unspecified)
i,0.87,CCc1nc2ccccc2c(C(=O)OCC(=O)NCc2ccco2)c1C
i,2.3,CS(=O)(=O)c1ccc(C(=O)NCC(c2ccco2)N2CCCCC2)cc1 (stereo unspecified)
i,-2.5,CC(=O)Nc1cc(C(N)=O)c(Cl)cc1Cl
i,-1.4,CC(C)(C)c1ccc(NC(=O)c2ccccc2)c([N+](=O)[O-])c1
i,0.42,CCc1cccc(CC)c1NC(=O)COc1ccccc1C(=O)c1cc(C#N)c(=O)n(C2CCCCC2)c1
i,0.1,Cc1ccc(S(=O)(=O)NNC(=S)NCC2CCCO2)cc1 (stereo unspecified)
i,2.9,COc1cccc(-n2cc(C(=O)O)c3ccccc3c2=O)c1
i,3,COc1ccc2c(c1)c1nc3ccccc3nc1n2CCn1c(=O)oc2ccccc21
i,2.1,CC1(C)CC(c2nc(-c3ccccc3)cs2)CCS1 (stereo unspecified)
i,0.07,COc1ccccc1CN1CC(C(=O)NCc2cccc(Cl)c2)CCC1=O (stereo unspecified)
i,-2,Cc1ccc(NS(=O)(=O)c2cccc(C(=O)N/N=C/c3c(C)nn(-c4ccccc4)c3N3CCCC3)c2)c(C)c1
i,1.3,COc1ccc(/C=C(/C#N)S(=O)(=O)c2ccc(C)cc2)cc1
i,-1.9,COc1cc(CN(C)CCc2ccccc2)ccc1OCc1ccccc1
i,-0.7,C=CCOc1c(CNc2ncn[nH]2)cccc1OCC
i,2.2,CCOC(=O)c1cc(N)cc([N+](=O)[O-])c1
i,0.81,CC1CCCCN1C(=O)CN1CCC(c2nc3ccc(Cl)cc3[nH]2)CC1 (stereo unspecified)
i,-0.01,CN(C(=O)CC1C(=O)NCCN1Cc1ccc(F)cc1Cl)C1CCCCC1 (stereo unspecified)
i,0.01,O=C(N=C1N=C2C=CC=CN2Cc2ccccc21)c1ccc(S(=O)(=O)N2CCCC2)cc1
i,-0.77,C=C(C)COc1ccc(-c2[nH]ncc2Oc2ccccc2OC)c(O)c1
i,-1.2,COc1ccc(CC2(CO)CCN(Cc3cccn3-c3ccccn3)CC2)cc1
i,-0.84,CN(C)c1ccc(/C=C/C(=O)c2ccc(C(C)(C)C)cc2)cc1[N+](=O)[O-]
i,-1.3,CCCCn1c(=O)n(Cc2cccc(F)c2)c(=O)c2c1ncn2Cc1ccco1
i,-0.66,CN(c1ccccc1)S(=O)(=O)c1cccc2ccccc12
i,0.67,Cc1ccc(OCc2nc(-c3ccccc3)no2)cc1
i,-0.76,Cc1cc(C)c(NC(=O)C2CCCN2C)c(C)c1 (stereo unspecified)
i,-0.6,COc1ccc(OC)c(S(=O)(=O)N2CCCC(C(=O)N3CCC(C(N)=O)CC3)C2)c1 (stereo unspecified)
i,0.03,Cc1ccc(C)c(/C=N/NC(=S)NCCc2ccccc2)c1
i,-0.4,CCOC(=O)c1ccc(NC(=S)N2CCN(CCO)CC2)cc1
i,-1.1,CCOc1ccc(/C=C/C(=O)c2ccccc2)cc1OC
i,2.2,CC1=C(C(=O)OC2CCCCC2)C(c2ccco2)C2=C(CC(C)(C)CC2=O)N1 (stereo unspecified)
i,1.7,Oc1ccccc1CNc1ccc2c(c1)OCCO2
i,-0.13,Cc1cc(C)c(OCC(=O)Nc2ccc(S(=O)(=O)N3CCOCC3)cc2)c(C)c1
i,-0.46,CN(C(=O)CCCN1C(=O)c2cccc3cccc(c23)C1=O)c1ccccc1
i,0.83,CN(CC(=O)Nc1cccc(F)c1)C(=O)C1CC(=O)N(Cc2ccccc2)C1 (stereo unspecified)
i,1.2,CC1CCN(c2c(NCc3ccc(C(=O)NCc4ccco4)cc3)c(=O)c2=O)CC1
i,0.05,Cc1ccc(CSc2nc3sc(C)c(C)c3c(=O)n2Cc2ccco2)cc1
i,-1.7,CCOCCCNC(=O)c1cn(CC(C)C)c(=O)c2c1c1ccccc1n2C
i,3.2,COc1ccccc1NC(=O)/C(C#N)=C/c1cc([N+](=O)[O-])ccc1N1CCCC1
i,-0.26,O=C(CSc1ccccc1)NCc1ccccc1
i,-0.5,C#CCSc1nc(-c2cccs2)ccc1C#N
i,-1.1,CC(=O)CN1C(=O)NC(c2ccccc2)(c2ccccc2)C1=O
i,1,Cn1c(=O)c2c(nc(NC3CCCC3)n2C)n(C)c1=O
i,1.3,Cc1ccc(Cn2cccc(NC(=O)NC3CCCCC3)c2=O)cc1
i,-0.81,CC(C)c1ccc(N(CC(=O)NN=C2CCN(C)CC2)S(=O)(=O)c2ccccc2)cc1
i,1.2,Cc1ccccc1C(=O)NC(NCc1ccco1)C(Cl)(Cl)Cl (stereo unspecified)
-5.6*,0.03*,O=c1cc(CN2CCN(S(=O)(=O)c3ccc4c(c3)OCCO4)CC2)c2ccc(O)cc2o1
i,-0.62,Cc1[nH]c(C)c(S(=O)(=O)N2CCN(c3ccccc3F)CC2)c1C(=O)N1CCCCC1
i,1.2,c1ccc2c(c1)oc1c(NCCN3CCOCC3)ncnc12
i,0.32,CC1(C)CC(Cc2nc(=S)[nH][nH]2)C(=O)O1 (stereo unspecified)
i,0.23,COCCNC(=O)C(c1ccc(C)cc1)N(C(=O)CCC(=O)Nc1ccccn1)c1ccc(C)cc1 (stereo unspecified)

Source: PubChem BioAssay
